Screening data (PubChem)
StopGo reporter: FMDV 2A StopGo reporter, luciferase signal; 410,000 tested, 1.2% active; Potency, µM (titrated, usually from 57.9 µM), inactives show top-dose signal change, negative = less light; AID 1159524; human cells with a luciferase reporter of 2A StopGo recoding; control for the full effect not named in the record; active = well fitted falling curve with a large enough effect; inconclusive = small, poorly fitted or top-dose-only effect; inactive = no such curve, though single readings can be large or run the other way; tested in HEK293T cells; note: nearly all actives have a fitted effect of over 45% in size; luciferase light after 4 h
RE007 growth inh: less growth of the S. pombe RE007 Vpr strain | 360,000 tested, 0.21% active | S. pombe RE007 Vpr strain, BacTiter-Glo ATP luminescence, 24 h; control for the full effect not named in the record | Potency, µM (titrated, usually from 92.2 µM), without a hit: at the highest dose activity change, negative = less growth; active = well fitted falling curve with a large enough effect; inconclusive = small, poorly fitted or top-dose-only effect; inactive = no such curve, though single readings can be large or run the other way;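 note: nearly all actives have a fitted effect of over 50% in size; the assay follows cell death caused by Vpr and the record does not say whether a fall means rescue or toxicity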
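Fission yeast strain RE007, carrying one chromosomally integrated HIV-1 vpr copy, was seeded at OD 0.01 in PMG+AL medium with 23 nL pinned compound. After 24 h at 30 °C and 99% humidity, viability was read by BacTiter-Glo luminescence.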
* = called active by the depositor; ? = inconclusive; [ ] = remark or other dose. % is set by controls: 0 for no effect and ±100 for the full control effect; potency is the fitted concentration of half-maximal effect.

SMILES	StopGo reporter	RE007 growth inh
CN1OC[C@@H]2CN[C@H](c3ccc(-c4ccccc4)cc3)C[C@@H]21	51%[activator]	28%
O=C(COC(=O)c1ccc(O)cc1)Nc1cc(S(=O)(=O)N2CCOCC2)ccc1N1CCOCC1	4%	-14%
COc1cc2c(cc1N)-c1ccc(N)cc1C2=O	60%[activator]	-12%
NS(=O)(=O)c1cccc(NC(=O)CSc2n[nH]c(-c3ccccc3Br)n2)c1	-13%	9%
COc1ccc(CN2C[C@H](O)COC[C@@H]3O[C@H](CC(=O)NCc4ccncn4)CC[C@H]32)cc1	-17%	-6%
COC(=O)C[C@@H]1C[C@@H]2c3cc(NC(=O)NC4CCCCC4)ccc3O[C@@H]2[C@H](CO)O1	0%	-17%
Cc1ccc(-c2c(C#N)c(N)n(-c3ccccc3C)c(=O)c2C#N)cc1	-22%	-9%
CC(=O)O[C@]1(C(C)=O)CC[C@H]2[C@@H]3C=C(C)C4=CC(=O)CC[C@@H]4[C@H]3CC[C@@]21C	?	3%[18.4 µM]
O=C(NCc1cccnc1)c1cc(C2CCCN(C(=O)C3CCCCC3)C2)on1 (configuration not stated)	-4%	0%
C#CCNC(=O)C[C@@H]1C[C@@]2(C(=O)OC)CCCCC=C2N(CCc2ccc(OC)c(OC)c2)C1=O	-17%	-19%
COc1ccc(C)cc1/C=C/C(=O)N1CCN(S(=O)(=O)c2cccs2)CC1	?	11%
COC[C@H]1CCCN1c1ccc2c(c1)O[C@H](COCc1ccccc1)CN([C@@H](C)c1ccccc1)S2(=O)=O	-12%	-7%
Cc1cc2nc(C(C)(C)C)c(CC3CCCCC3)n2c(C)c1Br	-25%	-5%
CCS(=O)(=O)NC(C)c1nnc2n1-c1ccc(Br)cc1C(c1ccccc1Cl)=NC2 (configuration not stated)	-5%	27%
COC[C@@H]1CCCN1c1ccc2c(c1)O[C@H](COCc1ccccc1)CN([C@@H](C)c1ccccc1)S2(=O)=O	5%	0%
O=C(OCCO)c1c(C2=CCCCC2)oc2c1C(OCCO)CCC2 (configuration not stated)	-18%	10%
Cc1ccc2c(c1)C(c1ccccc1)=NCC(=O)N2C	-9%	0%
COc1ccc(CNc2cccnc2Cl)cc1	24%	-11%
CC1(C(=O)NS(=O)(=O)Cc2ccccc2)CCN1C(=O)Cc1ccc(-c2ccccc2)cc1 (configuration not stated)	-12%	-3%[18.4 µM]
C[C@H](CO)N1C[C@H](C)[C@H](CN(C)S(=O)(=O)c2cccs2)OCc2cnnn2CCCC1=O	-10%	6%
Clc1ccc(C(Cn2ccnc2)OCc2c(Cl)cccc2Cl)c(Cl)c1 (configuration not stated)	?	?
COc1ccc(CC(N)c2csc(Nc3ccc(S(C)(=O)=O)cc3)n2)cc1 (configuration not stated)	-6%	-2%[18.4 µM]
O=C(NCc1cccnc1)c1csc([C@@H]2O[C@H](CO)[C@H](O)[C@H](O)[C@H]2O)n1	-17%	3%
Cc1nc(=O)c(-c2ccccc2)c(C)n1-c1ccccc1Cl	-10%	-16%
O=C(COC(=O)c1ccc2c(c1)OCCO2)Nc1ccccc1C(F)(F)F	12%	-4%

Next part:
SMILES	StopGo reporter	RE007 growth inh
O=C(CSc1nc2[nH]ncc2c(=O)[nH]1)Nc1cc(C(F)(F)F)ccc1Cl	-9%	0%
O=C(Nc1cccc(C(F)(F)F)c1)c1csc([C@@H]2O[C@H](CO)[C@@H](O)[C@H]2O)n1	-14%	-7%
Nc1c([N+](=O)[O-])cc2c3c(cccc13)CC2	-7%	-6%[18.4 µM]
COc1ccccc1COc1cccn2c(N(C)C(=O)CCC3CCCC3)c(C)nc12	0%	-7%[18.4 µM]
CCOC(=O)C1=C(C)N(CCCCCC(=O)O)C(=O)NC1c1ccccc1OS(=O)(=O)c1ccc(C)cc1 (configuration not stated)	-22%	0%
COc1cc(CNc2nc3ccccc3n2Cc2ccccc2)ccc1O	?	-25%
CCOC(=O)[C@]12CCCC=C1N(CCC1=CCCCC1)C(=O)[C@H](CC(=O)N1CCN(C(=O)C3CC3)CC1)C2	-7%	0%
COC(=O)[C@]12CCCCC=C1N(Cc1ccco1)C(=O)[C@H](CC(=O)NCCC(C)C)C2	15%	1%
CC(CO)NS(=O)(=O)c1ccc(Br)cc1F (configuration not stated)	-12%	-15%
CCOC(=O)C1CC2=C(CCCC2=O)N(Cc2ccccc2)C1=O (configuration not stated)	-14%	-3%
CC1CN(S(=O)(=O)c2cccc(C(=O)NCC(c3cccs3)N3CCOCC3)c2)CC(C)O1 (configuration not stated)	-4%	5%
C[C@]1(C2CCCC2)Cc2cc(OCC(=O)O)c(Cl)c(Cl)c2C1=O	0%	17%
CC(=O)Nc1cccc(-c2ccnc3c2CC(C)(C(=O)NCc2cccc(Cl)c2)O3)c1 (configuration not stated)	-14%	-11%[18.4 µM]
C[C@@H]1CN([C@@H](C)CO)C(=O)c2cc(C3=CCCCC3)cnc2O[C@H]1CN(C)C(=O)Nc1cccc(F)c1	-3%	-16%
Nc1ncnc2c1ncn2C1OC(CO)C2OC21 (configuration not stated)	1%	3%
COC(=O)C[C@H]1c2cc(C(F)(F)F)ccc2S(=O)(=O)N1Cc1ccc(OC)cc1	-26%	5%
CN(C)C1CN(Cc2cn(Cc3cccc(Cl)c3)nn2)S(=O)(=O)C1 (configuration not stated)	-14%	5%
COCCn1c2nc(=O)n(-c3ccccc3)c(=O)c-2nc2ccccc21	?	-7%
O=C(CC[C@H]1O[C@@H](n2ccc(=O)[nH]c2=O)[C@H](O)[C@@H]1O)NC1CCN(Cc2ccccc2)C1 (some centres not stated)	-27%	1%
CC(C)NC(=O)c1cc(C2CCCCN2S(=O)(=O)c2ccccc2)on1 (configuration not stated)	-10%	7%
Cc1occc1C(=O)N/N=C/c1ccc[nH]1	51%[activator]	-11%
COCCNC(=O)C1(C)CCN(C(=O)COc2ccc(Cl)cc2Cl)C1 (configuration not stated)	-12%	-6%[18.4 µM]
O=c1c(-c2ccco2)nc2ccccc2n1C(c1ccccc1)c1nc2ccccc2[nH]1 (configuration not stated)	18%	-24%
Cc1ccc(C(=O)NC(=S)N(C)Cc2ccccc2)cc1	30%[activator]	14%
CCc1nc2c(OCc3ccc(Cl)cc3Cl)cccn2c1N(C)C(=O)C1CC1	-22%	-16%

Later entries:
SMILES	StopGo reporter	RE007 growth inh
O=C1NC[C@H](CCCCN2C[C@H](Cc3ccccc3)N(CCc3ccc(O)cc3)C(=O)C2=O)N(CCc2ccc(O)cc2)C1=O	-12%	4%
C[C@H](CO)N1C[C@H](C)[C@@H](CN(C)C(=O)c2ccccc2)OCc2cn(nn2)CCCC1=O	0%	3%
Cc1ccc(F)cc1C(=O)N1CCC1(C)C(=O)O (configuration not stated)	-18%	2%
COC(=O)C1(C)CCc2c(ccc3ccccc23)C1=O (configuration not stated)	11%	-12%[18.4 µM]
CC1=C(C(=O)N2CCOCC2)CC(CC(=O)NC2CCCCC2)C(=O)N1Cc1ccc(F)cc1 (configuration not stated)	3%	3%
CC(C)NC(=O)C1(C)Cc2c(-c3cccc(C(F)(F)F)c3)ccnc2O1 (configuration not stated)	-22%	10%
COc1ccccc1C(O)c1ncc(-c2cccc(C(F)(F)F)c2)[nH]1 (configuration not stated)	32%[activator]	-27%
CCC(=O)N1CCC1(C)C(=O)Nc1ncc(C)s1 (configuration not stated)	-1%	1%
COc1ccc(S(=O)(=O)NC(=O)C2(C)CCN2C(=O)CC2CCCC2)cc1 (configuration not stated)	-10%	8%
COc1ccc(C(SCC(NC(=O)OCc2ccccc2)C(=O)O)c2ccc(OC)cc2)cc1 (configuration not stated)	0%	-1%
O=C(O)/C(=C\c1c(C(=O)O)[nH]c2cc(Cl)cc(Cl)c12)c1ccccc1	-17%	21%[18.4 µM]
COc1ccc(C(O)c2nc(-c3ccc(Cl)cc3)cs2)cc1 (configuration not stated)	?	-16%[18.4 µM]
COc1cc(C2(C)SCCCS2)cc(OC)c1OC	-21%	5%
CC(C)(C)NC(=O)C(c1ccc(C(F)(F)F)cc1)n1c(=O)c(-c2ccco2)nc2ccccc21 (configuration not stated)	-20%	-7%
Cc1cc(F)ccc1C(O)c1ncc(-c2ccc(Oc3ccccc3)cc2)[nH]1 (configuration not stated)	-16%	7%
COc1ccc(-n2nnnc2C(C2CC2)N2CCC(n3c(=O)[nH]c4ccccc43)CC2)cc1 (configuration not stated)	-27%	7%
C[C@@H]1CCCCO[C@H](CN(C)Cc2ccccc2)[C@@H](C)CN([C@H](C)CO)C(=O)c2cc(NC(=O)c3ccccc3)ccc2O1	-12%	14%
O=C(N/N=C/c1ccc(O)c(O)c1)C1CC1	7%	-11%
CCCCC(=O)N(C)c1c(C)nc2ccc(C(=O)N3CCCCC3)cn12	-7%	-11%
CCN1C[C@]2(CO)CC[C@H](OC)[C@@]34C5C[C@H]6[C@H](OC)C5[C@](O)(C[C@H]6OC)[C@@H](C(OC)C23)[C@@H]14 (some centres not stated)	-22%	-9%
COc1cccc(NC(=O)C2(C)CCN2Cc2ccc(SC)cc2)c1 (configuration not stated)	-19%	9%
O=C(N=C1SC2CS(=O)(=O)CC2N1Cc1ccccc1)c1ccccc1 (configuration not stated)	-18%	-3%
Cn1nc(C(=O)Nc2ccccc2Cl)cc1C(=O)Nc1ccccc1Cl	-1%	-11%
O=c1[nH]c2ccccc2n1C1CCN(C(c2ccccc2OC(F)(F)F)c2nnnn2-c2ccc3c(c2)OCCO3)CC1 (configuration not stated)	?	5%
CN(C)CC#Cc1cccc(-c2nc(C(=O)O)cc3c2[C@@H](CCO)N(S(=O)C(C)(C)C)C3)c1 (some centres not stated)	-17%	3%

Going on with the list.
SMILES	StopGo reporter	RE007 growth inh
CC(=O)NCCNC(=O)Cn1nnc(-c2ccccc2)c1COc1ccc2ccccc2c1	-16%	1%
O=C([C@H]1O[C@@H](n2ccc(=O)[nH]c2=O)[C@H](O)[C@@H]1O)N(CCC1=CCCCC1)CC1CC1	0%	47%
CC(C)(C)OC(=O)N(CCc1ccccc1)Cc1ccccc1OCc1ccc(NC(=O)C2CCCC2)cc1	-1%	3%
COc1ccccc1S(=O)(=O)N(C)C[C@@H]1OCc2cnnn2CCCC(=O)N([C@@H](C)CO)C[C@H]1C	0%	-26%
COc1cc(OC)cc(C2=Cc3ccc(OC)cc3C(CC(C)=O)N2c2ccc(-c3cncnc3)cc2)c1 (configuration not stated)	-20%	5%
CS(=O)(=O)c1ccc(Nc2nc(C(N)Cc3ccc(Cl)cc3)cs2)cc1 (configuration not stated)	-20%	-15%[18.4 µM]
CCOC(=O)C1=CCN(S(C)(=O)=O)C1c1ccc(C)cc1 (configuration not stated)	-27%	10%
COc1ccc2nc3n(c(=O)c2c1)-c1cc2ccccc2cc1C(=O)NC3Cc1ccccc1 (configuration not stated)	?	-9%
C[C@@H]1CCCCO[C@H](CN(C)Cc2ccc3c(c2)OCO3)[C@H](C)CN([C@@H](C)CO)C(=O)c2cc(NC(=O)c3ccccc3)ccc2O1	5%	2%
c1ccc2c(c1)nnn2Cn1nnc2ccccc21	0%	-3%
CSCCC(C(=O)Nc1c(C)cccc1C)N1CCN(C/C=C/c2ccccc2)CC1 (configuration not stated)	-15%	-14%
CC(=O)Nc1ccc(CNc2nc3cc(-c4ccsc4)sc3c(=O)n2C)cc1	0%	7%[18.4 µM]
O=C(c1cccnc1)N1Cc2ccccc2-n2nncc2C1	-12%	7%
Cc1ccc(S(=O)(=O)NC(C)C(=O)NCc2ccc(Cl)cc2)cc1 (configuration not stated)	-17%	9%
CCOC(=O)[C@]12CCCC=C1N(Cc1ccc3c(c1)OCO3)C(=O)[C@H](CC(=O)N1CCOCC1)C2	-6%	0%
O=C(Nc1cccc(OC(F)(F)F)c1)C1Cc2c(-c3ccco3)ccnc2O1 (configuration not stated)	-28%	5%
O=C(C1CCN(c2nc(-c3ccccc3)nc3c2CCC3)CC1)N1CCCC1	12%	3%

Among those listed so far, these have an NH in an aromatic ring.
SMILES	StopGo reporter	RE007 growth inh
NS(=O)(=O)c1cccc(NC(=O)CSc2n[nH]c(-c3ccccc3Br)n2)c1	-13%	9%
O=C(CSc1nc2[nH]ncc2c(=O)[nH]1)Nc1cc(C(F)(F)F)ccc1Cl	-9%	0%
O=C(CC[C@H]1O[C@@H](n2ccc(=O)[nH]c2=O)[C@H](O)[C@@H]1O)NC1CCN(Cc2ccccc2)C1 (some centres not stated)	-27%	1%
Cc1occc1C(=O)N/N=C/c1ccc[nH]1	51%[activator]	-11%
O=c1c(-c2ccco2)nc2ccccc2n1C(c1ccccc1)c1nc2ccccc2[nH]1 (configuration not stated)	18%	-24%
COc1ccccc1C(O)c1ncc(-c2cccc(C(F)(F)F)c2)[nH]1 (configuration not stated)	32%[activator]	-27%
O=C(O)/C(=C\c1c(C(=O)O)[nH]c2cc(Cl)cc(Cl)c12)c1ccccc1	-17%	21%[18.4 µM]
Cc1cc(F)ccc1C(O)c1ncc(-c2ccc(Oc3ccccc3)cc2)[nH]1 (configuration not stated)	-16%	7%
COc1ccc(-n2nnnc2C(C2CC2)N2CCC(n3c(=O)[nH]c4ccccc43)CC2)cc1 (configuration not stated)	-27%	7%
O=c1[nH]c2ccccc2n1C1CCN(C(c2ccccc2OC(F)(F)F)c2nnnn2-c2ccc3c(c2)OCCO3)CC1 (configuration not stated)	?	5%
O=C([C@H]1O[C@@H](n2ccc(=O)[nH]c2=O)[C@H](O)[C@@H]1O)N(CCC1=CCCCC1)CC1CC1	0%	47%

Not all compounds are listed; count on the stated rates, not on these rows.
